# EPAC2 ant val: validation of human EPAC2 antagonists | EPAC2 Rap1B BODIPY-GDP exchange, fluorescence | Potency, µM (top dose mostly 112 µM), inactives show at the top dose activity, negative = inhibition, usual class: inhibitors | 16,000 tested, 1.7% active; active = well fitted inhibition curve with a large enough effect; inconclusive = small, poorly fitted or top-dose-only effect; inactive = no such curve, though single readings can be large or run the other way;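 also: 100% = activation by cAMP agonist control; nearly all actives have a fitted effect of over 40% in size; the record reuses the description of the EPAC1 agonist screen; inactives centre near -10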
# Target sequence (Q8WZA2 whole entry, looked up): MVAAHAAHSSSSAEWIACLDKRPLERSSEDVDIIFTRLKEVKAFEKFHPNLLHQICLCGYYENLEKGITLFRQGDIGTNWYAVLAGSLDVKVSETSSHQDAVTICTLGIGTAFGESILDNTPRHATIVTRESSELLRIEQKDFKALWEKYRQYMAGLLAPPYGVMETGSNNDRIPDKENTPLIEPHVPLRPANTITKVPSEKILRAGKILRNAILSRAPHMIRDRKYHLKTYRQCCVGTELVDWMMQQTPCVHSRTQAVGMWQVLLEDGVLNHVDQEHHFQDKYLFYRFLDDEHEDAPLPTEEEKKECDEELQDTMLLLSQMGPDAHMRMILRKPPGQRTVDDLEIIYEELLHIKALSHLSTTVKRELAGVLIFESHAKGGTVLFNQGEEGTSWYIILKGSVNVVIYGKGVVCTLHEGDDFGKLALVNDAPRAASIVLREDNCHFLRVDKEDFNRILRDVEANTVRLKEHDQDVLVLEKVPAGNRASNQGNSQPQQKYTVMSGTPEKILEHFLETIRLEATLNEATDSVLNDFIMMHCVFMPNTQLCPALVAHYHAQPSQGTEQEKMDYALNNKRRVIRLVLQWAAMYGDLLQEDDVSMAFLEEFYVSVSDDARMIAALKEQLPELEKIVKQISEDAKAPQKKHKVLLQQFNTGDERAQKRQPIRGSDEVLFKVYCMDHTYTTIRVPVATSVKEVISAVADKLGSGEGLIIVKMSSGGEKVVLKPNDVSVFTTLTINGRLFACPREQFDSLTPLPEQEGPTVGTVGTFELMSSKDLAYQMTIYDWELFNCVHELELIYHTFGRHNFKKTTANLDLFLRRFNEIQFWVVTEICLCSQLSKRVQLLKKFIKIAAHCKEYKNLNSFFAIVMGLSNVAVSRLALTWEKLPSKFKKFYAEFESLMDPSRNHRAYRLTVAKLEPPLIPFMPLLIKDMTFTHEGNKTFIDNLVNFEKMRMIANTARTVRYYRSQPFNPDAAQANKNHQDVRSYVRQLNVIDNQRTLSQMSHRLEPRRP
#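 Fluorescent exchange read-out: 100 nM EPAC2 with 250 nM RAP1B–BODIPY-GDP and 50 uM GDP; BODIPY-GDP release lowers fluorescence. Read at 480/540 nm every 5 min for 30 min at room temperature; normalized to 6.5 mM cAMP.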
# Active calls of the source: *; ? = inconclusive; & = joins results of further samples; ! = a repeat was not active; [ ] = another dose, or the depositor's remark. Potency is read from the fitted curve at half-maximal effect.
# The first 19 compounds, ahead of the listing:
cpd	Compound	EPAC2 ant val
1	Nc1ccc(Cl)cc1	35.1%[activator][239 µM]
2	O=C(CS(=O)C(c1ccccc1)c1ccccc1)NO (stereo not given)	-25.8%
3	CN(C)C(=S)SSC(=S)N(C)C	-16.2%&-7.9%
4	Cc1o[nH]c(=O)c1C[C@@H](N)C(=O)O	-14.6%
5	C=C1[C@@H](O)C2C=CC[C@H](C)C(=O)[C@@](C)(O)C=C[C@@H](OC(C)=O)[C@@]23C(=O)N[C@H](Cc2ccccc2)[C@@H]3[C@@H]1C (stereo not given in full)	-17.1%
6	O=C(C[C@@H]1NCCC[C@H]1O)Cn1cnc2cc(Br)c(Cl)cc2c1=O	17.5%
7	c1ccc(CN2CCC3(CCNCC3)CC2)cc1	-13.5%
8	C[C@]12C/C(=C/O)C(=O)C[C@@H]1CC[C@@H]1[C@@H]2CC[C@@]2(C)[C@H]1CC[C@]2(C)O	-14.3%
9	FC(F)(F)c1cccc(C2=CCN(CCc3ccc4ccccc4c3)CC2)c1	-4.5%
10	CCOP(=S)(OCC)SCSc1ccc(Cl)cc1	4.5%
11	C=CCN1CC[C@]23CCCC[C@H]2[C@H]1Cc1ccc(O)cc13	0.4%
12	C[C@]12CCC(=O)C=C1CCc1ccc(O)cc12	-1.5%
13	CC[C@H](C)[C@H](NC(=O)[C@@H]1CCCN1C(=O)[C@H](CCC(=O)O)NC(=O)[C@@H](NC(=O)[C@H](Cc1ccccc1)NC(=O)[C@@H]1CCCN1C(=O)[C@@H](N)Cc1ccc(O)cc1)C(C)C)C(=O)O	-6.1%[11.4 µM]
14	CC(=O)Oc1ccc(Cl)c2cccnc12	-10.0%
15	C=C1CC[C@@]2(O)[C@H]3Cc4ccc(O)c5c4[C@@]2(CCN3CC2CC2)[C@H]1O5	24.2%
16	C#CCOC(C(=O)OCCN(C)C)(c1ccccc1)c1ccccc1	-32.2%
17	COC(=O)CN1CN(c2ccccc2)C2(CCN(Cc3ccc4ccccc4c3)CC2)C1=O	?
18	CC(C)C[C@H](NC(=O)[C@H](Cc1ccccc1)NC(=O)CNC(=O)CNC(=O)[C@@H](N)Cc1ccc(O)cc1)C(=O)N[C@@H](CCCN=C(N)N)C(=O)N[C@@H](CCCCN)C(=O)N[C@@H](Cc1ccc(O)cc1)C(=O)N1CCC[C@H]1C(=O)N[C@@H](CCCCN)C(=O)O	-1.4%[11.4 µM]
19	O=C(NCNC(=O)NC1C(=O)NC(=O)N1CO)NC1C(=O)NC(=O)N1CO (stereo not given)	9.8%

# All compounds of this part, previewed entries included:
cpd	Compound	EPAC2 ant val
1	Nc1ccc(Cl)cc1	35.1%[activator][239 µM]
2	O=C(CS(=O)C(c1ccccc1)c1ccccc1)NO (stereo not given)	-25.8%
3	CN(C)C(=S)SSC(=S)N(C)C	-16.2%&-7.9%
4	Cc1o[nH]c(=O)c1C[C@@H](N)C(=O)O	-14.6%
5	C=C1[C@@H](O)C2C=CC[C@H](C)C(=O)[C@@](C)(O)C=C[C@@H](OC(C)=O)[C@@]23C(=O)N[C@H](Cc2ccccc2)[C@@H]3[C@@H]1C (stereo not given in full)	-17.1%
6	O=C(C[C@@H]1NCCC[C@H]1O)Cn1cnc2cc(Br)c(Cl)cc2c1=O	17.5%
7	c1ccc(CN2CCC3(CCNCC3)CC2)cc1	-13.5%
8	C[C@]12C/C(=C/O)C(=O)C[C@@H]1CC[C@@H]1[C@@H]2CC[C@@]2(C)[C@H]1CC[C@]2(C)O	-14.3%
9	FC(F)(F)c1cccc(C2=CCN(CCc3ccc4ccccc4c3)CC2)c1	-4.5%
10	CCOP(=S)(OCC)SCSc1ccc(Cl)cc1	4.5%
11	C=CCN1CC[C@]23CCCC[C@H]2[C@H]1Cc1ccc(O)cc13	0.4%
12	C[C@]12CCC(=O)C=C1CCc1ccc(O)cc12	-1.5%
13	CC[C@H](C)[C@H](NC(=O)[C@@H]1CCCN1C(=O)[C@H](CCC(=O)O)NC(=O)[C@@H](NC(=O)[C@H](Cc1ccccc1)NC(=O)[C@@H]1CCCN1C(=O)[C@@H](N)Cc1ccc(O)cc1)C(C)C)C(=O)O	-6.1%[11.4 µM]
14	CC(=O)Oc1ccc(Cl)c2cccnc12	-10.0%
15	C=C1CC[C@@]2(O)[C@H]3Cc4ccc(O)c5c4[C@@]2(CCN3CC2CC2)[C@H]1O5	24.2%
16	C#CCOC(C(=O)OCCN(C)C)(c1ccccc1)c1ccccc1	-32.2%
17	COC(=O)CN1CN(c2ccccc2)C2(CCN(Cc3ccc4ccccc4c3)CC2)C1=O	?
18	CC(C)C[C@H](NC(=O)[C@H](Cc1ccccc1)NC(=O)CNC(=O)CNC(=O)[C@@H](N)Cc1ccc(O)cc1)C(=O)N[C@@H](CCCN=C(N)N)C(=O)N[C@@H](CCCCN)C(=O)N[C@@H](Cc1ccc(O)cc1)C(=O)N1CCC[C@H]1C(=O)N[C@@H](CCCCN)C(=O)O	-1.4%[11.4 µM]
19	O=C(NCNC(=O)NC1C(=O)NC(=O)N1CO)NC1C(=O)NC(=O)N1CO (stereo not given)	9.8%
20	CC(N)[C@H](O)c1ccccc1 (stereo not given in full)	-1.3%
21	O=[N+]([O-])c1c2ccccc2cc2ccccc12	-3.4%[239 µM]
22	NCc1cc(=O)[nH]o1	-17.3%&-18.1%&-9.0%
23	CN1C(=O)COc2c(C(=O)N[C@@H]3CN4CCC3CC4)cc(Cl)cc21	-21.8%
24	O[C@H]1[C@H]2[C@H](O)CCCN2C[C@H]1O	31.3%[activator]
25	O=C(O)COc1nc(Cl)c(Cl)cc1Cl	9.7%[239 µM]
26	CC1(C)C(C=C(Cl)Cl)C1C(=O)OC(C#N)c1cccc(Oc2ccccc2)c1 (stereo not given)	-11.8%
27	C[C@@]12CCC3C(CCC4=CC(=O)CC[C@]43C)C1CCC2O (stereo not given in full)	?
28	CCOP(=S)(OCC)Oc1cc(C)nc(C(C)C)n1	10.0%
29	COc1cc2nc(N(C)C)c(CNCCc3c[nH]c4ccccc34)cc2c(OC)c1OC	1.6%
30	COc1ccc2c(c1)C13CCCCC1C(C2)N(C)CC3 (stereo not given)	-13.1%
31	NC(=O)OCCCc1ccccc1	?
32	C[C@]12CCC3C(C=CC4=CC(=O)CC[C@]43C)C1CC[C@]2(O)CCC(=O)O (stereo not given in full)	-22.3%
33	CNC(C)C(O)c1ccc(O)cc1 (stereo not given)	7.7%&-15.5%
34	CCN[C@@H](C)Cc1ccccc1	-2.2%[239 µM]
35	NCC(N)C(=O)c1ccccc1 (stereo not given)	-0.7%
36	Clc1ccccc1Cl	-27.7%
37	Clc1ccc2c(c1)C(c1ccccc1)=NCc1nncn1-2	7.9%
38	CN1CCC(c2c[nH]c3ccc(O)cc23)CC1	5.5%&-6.5%&-18.5%
39	c1cnc(N2CC[C@@]3(CCCNC3)C2)nc1	-16.7%
40	COc1nc(NC(C)C)nc(NC(C)C)n1	-21.0%
41	Cl.Cl.Cl.Cl.Cl.Cl.N.N.N.N.NNNNN.NNNNN.O.O.[Ru].[Ru].[Ru]	56.2µM*
42	CC1=NN=C(c2ccc(N)cc2)c2cc3c(cc2C1)OCO3	?
43	COC1C(O)C(C)O[C@@H](OC2CC[C@@]3(C)C4CC[C@]5(C)C(C6=CC(=O)OC6)CC[C@@]5(O)C4CC[C@@H]3C2)C1O (stereo not given in full)	0.3%
44	CN[C@@H]1C[C@@H](c2ccc(Cl)c(Cl)c2)c2ccccc21	-5.7%&9.6%
45	C[C@@H]1[C@H](O)[C@@H](C)C=CC=CCCC=CC=CC=CC=C[C@H](O[C@H]2O[C@@H](C)[C@H](O)[C@@H](N)[C@@H]2O)CC2O[C@](O)(C[C@@H](O)[C@H](O)CC[C@@H](O)C[C@@H](O)C[C@@H](O)CC(=O)O[C@H]1C)C[C@H](O)[C@H]2C(=O)O	16.7%
46	CC[C@H]1[C@@H]2C[C@H]3[C@@H]4N(C)c5ccccc5[C@]45C[C@@H](C2[C@H]5O)N3[C@@H]1O (stereo not given in full)	-12.1%[56.6 µM]
47	CN(C)CCN(C)CCc1ccc(Cl)c(Cl)c1	-8.9%&-21.7%
48	CC(C)C1C(=O)N2CCC[C@H]2[C@]2(O)O[C@](NC(=O)[C@@H]3C=C4c5cccc6[nH]cc(c56)C[C@H]4N(C)C3)(C(C)C)C(=O)N12 (stereo not given in full)	29.8%
49	CC(C)(O)[C@@H]1C2OC(=O)[C@@H]1[C@]1(O)C[C@H]3O[C@]34C(=O)O[C@H]2[C@]14C (tested in a mixture with another compound)	6.9%
50	CO[C@]12CC[C@@]3(C[C@@H]1[C@](C)(O)C(C)(C)C)[C@@H]1Cc4ccc(O)c5c4[C@@]3(CCN1CC1CC1)[C@H]2O5	?

# Going on with the list.
cpd	Compound	EPAC2 ant val
51	ClCCN(CCCl)/C(=C\c1ccccc1)c1ccnc2ccccc12	37.7%[activator]
52	N#Cc1ccc(CN2CC[C@@]3(CCCNC3)C2)cc1	-12.6%
53	O=C(O)c1ccc(NC(=O)N2C[C@H]3C[C@@H](C2)c2cccc(=O)n2C3)cc1	13.7%
54	C[C@@H]1CN(C2CCC(C#N)(c3ccc(F)cc3)CC2)CC[C@]1(C(=O)O)c1ccccc1 (stereo not given in full)	8.4%[56.6 µM]
55	N[C@@H](Cn1ccc(=O)[nH]c1=O)C(=O)O	-7.8%
56	O=c1ccc2cc(OC3OC(CO)C(O)C(O)C3O)c(O)cc2o1 (stereo not given)	-3.3%
57	CC(C)n1cnc2c(C(=O)N[C@H]3CN4CCC3CC4)cc(Cl)cc21	-18.9%
58	[N-]=[N+]=NCCN1CCC(O)CCC1=O (stereo not given)	-9.3%
59	CCCCC/C=C\C/C=C\C/C=C\C/C=C\CCCC(=O)NCC(=O)O	40.3%[activator]
60	CCOCCOC(C)=O	10.4%[239 µM]
61	c1csc(CN2CC3(CCNCC3)C2)n1	-31.8%
62	N#Cc1c(Cl)cccc1Cl	-12.2%
63	CCC1(c2cccc(O)c2)CCCCN(C)C1 (stereo not given)	-11.1%[56.6 µM]
64	N[C@@]1(C(=O)O)CC[C@H](C(=O)O)C1	-12.5%&-8.7%&-9.2%
65	CCCN(C/C=C\I)[C@@H]1CCc2ccc(O)cc2C1	?
66	CC(C)NC(=O)N1CCC2(CC1)CCN(C(=O)Oc1ccccc1)CC2	-19.3%
67	NC(=O)CS(=O)C(c1ccccc1)c1ccccc1 (stereo not given)	-25.8%&0.4%
68	CCCCCCCCCCCCCCCC[N+](C)(C)C	39.8µM*!
69	Cc1ccccc1-n1c(C)nc2ccccc2c1=O	5.0%[239 µM]
70	O=C(O)c1nn(Cc2ccc(Cl)cc2Cl)c2ccccc12	-28.1%&-32.3%&-32.2%
71	Nc1nc(N)nc(NC2CC2)n1	-20.6%
72	CN(C)c1ccc(C=C2C(=O)NC(=O)NC2=O)cc1	-14.1%
73	Cc1noc(C)c1C(=O)N1CCC[C@@]2(CCN(CC(C)C)C2)C1	-15.3%
74	Clc1ccccc1-c1cncnc1NCCc1cnc[nH]1	-20.6%

# Part of the list above in order of SMILES length, rising.
cpd	Compound	EPAC2 ant val
62	N#Cc1c(Cl)cccc1Cl	-12.2%
58	[N-]=[N+]=NCCN1CCC(O)CCC1=O (stereo not given)	-9.3%
53	O=C(O)c1ccc(NC(=O)N2C[C@H]3C[C@@H](C2)c2cccc(=O)n2C3)cc1	13.7%

# Source: PubChem BioAssay (National Center for Advancing Translational Sciences (NCATS))

# Some of the compounds tested; count on the stated rates, not on these rows.
